# Source: PubChem
# Vaccinia Venus = qHTS for Stage-Specific Inhibitors of Vaccinia Orthopoxvirus: Venus Reporter Primary qHTS | Vaccinia virus Venus reporter expression, fluorescence | Potency, µM (highest dose often 36.5 µM), for the others: at the top dose activity change, negative = inhibition, actives largely listed as inhibitors | 0.46% of 330,000 active | AID 720580, 2013; active means well fitted inhibition curve with a large enough effect; inconclusive means small, poorly fitted or top-dose-only effect; inactive means no such curve, though single readings can be large or run the other way; tested in A549 cells; also: nearly all actives have a fitted effect of over 30% in size; inactives centre near -10
# VACV mCherry inh = qHTS for Stage-Specific Inhibitors of Vaccinia Orthopoxvirus: mCherry Reporter Primary qHTS | Vaccinia virus mCherry reporter infection, fluorescence; about a quarter of the inactives have no number | Potency, µM (series often up to 36.5 µM), for inactives: top-dose activity change, negative = inhibition, usual class: inhibitors | 0.63% of 310,000 active | AID 720579, 2013; active = well fitted inhibition curve with a large enough effect; inconclusive = small, poorly fitted or top-dose-only effect; inactive = no such curve, though single readings can be large or run the other way; tested in A549 cells; also: nearly all actives have a fitted effect of over 35% in size; inactives centre near -10
# * = called active by the depositor; i = inactive; ? = inconclusive; . = not tested or not shown; [ ] = remark or other dose. % is scaled to controls: 0 for no effect and ±100 for the full control effect; potency is read from the fitted curve at half-maximal effect.
no.	canonical_smiles	Vaccinia Venus	VACV mCherry inh
1	N#C/C(=C\c1cn(CCOc2ccccc2)c2ccccc12)C(=O)NCC1CCCO1 (stereo unspecified)	-21.5%	?
2	Cc1ccc(C)c(NC(=O)C2CCCN(c3ncnc4onc(C)c34)C2)c1 (stereo unspecified)	-7.3%	-12.5%
3	COc1ccc(CCNS(=O)(=O)c2ccc3c(c2)OCCO3)cc1	-6.7%	-18.4%
4	O=C(Cc1ccc(NC(=O)C2CCCN(C(=O)C3CC3)C2)cc1)Nc1cccc(C(=O)N2CCCCC2)c1 (stereo unspecified)	-8.2%	i
5	CC1C(=O)N2CCCc3cc(S(=O)(=O)Nc4ccc(Br)cc4F)cc1c32 (stereo unspecified)	-11.0%	-15.2%
6	COc1ccc(NC(=O)CCc2nc3ccccc3s2)c(OC)c1	-10.1%	-21.6%
7	CCOc1cccc(C2/C(=C(/O)c3ccc4c(c3)CC(C)O4)C(=O)C(=O)N2Cc2cccnc2)c1 (stereo unspecified)	0.7%	-9.1%
8	COc1ccccc1N1CCN(Cc2cc(COC(C)C)c3cccnc3c2O)CC1	?	?
9	O=C(NCCc1ccc(Cl)cc1)c1cnc2sc(N3CCCC3)nn2c1=O	-27.0%	-21.8%
10	CC(/C=N/Nc1ncc(C)c(=O)[nH]1)=C\c1ccccc1	8.3%	10.6%
11	O=C(NNS(=O)(=O)c1ccccc1)C1CCN(S(=O)(=O)c2ccccc2)CC1	-5.7%	-6.7%
12	O=C(COc1ccc([N+](=O)[O-])cc1)NC(=O)NC1CCS(=O)(=O)C1 (stereo unspecified)	-21.9%	-2.7%
13	Cc1ccc(C)c(NCC(=O)c2ccc(Cl)cc2)c1	-15.0%	?
14	OCCN=C(c1ccccc1)C12CN3CN(CN(C3)C1)C2	-0.4%	i
15	CCc1noc(C)c1C(=O)N1CCSC1=Nc1cccc(Cl)c1C	-18.4%	-7.4%
16	COCCNC(=O)C(=O)N/N=C(\C)CC(=O)Nc1cccc(C(F)(F)F)c1	-1.5%	-2.5%
17	Nc1ccc2c(c1)C(=O)N(c1ccc3ccccc3c1)C2=O	?	?
18	COc1ccccc1-n1c(C)nc2cc(C(=O)O)ccc21	3.5%	-10.1%
19	CCCCOc1ccc(C(=O)NCC(=O)NCCOc2ccccc2)cc1	1.8%	-12.8%
20	CCN1CCC[C@H]1CNCCCn1cnc2c(SC)ncnc21	-11.7%	-1.7%
21	CCCN(CC(=O)Nc1ccccc1OC)C(=O)c1cc2ccccc2o1	-0.6%	-8.7%
22	N#Cc1ccc(OCC(=O)OCC(=O)c2ccc[nH]2)cc1	-0.6%	-2.4%
23	CCc1nc2c(c(=O)[nH]1)C(CC)(CC)Cc1ccccc1-2	-7.2%	i
24	CCOC(=O)C1(c2ccccc2)CCN(Cc2cccc(C(=O)O)c2)CC1	-2.6%	-1.3%

# Another view of part of the listing above.
22: N#Cc1ccc(OCC(=O)OCC(=O)c2ccc[nH]2)cc1
  Vaccinia Venus: -0.6%
  VACV mCherry inh: -2.4%
20: CCN1CCC[C@H]1CNCCCn1cnc2c(SC)ncnc21
  Vaccinia Venus: -11.7%
  VACV mCherry inh: -1.7%

# More compounds follow.
no.	canonical_smiles	Vaccinia Venus	VACV mCherry inh
25	CCOc1cc(/C=N/n2cnnc2)ccc1O	-3.0%	-6.2%
26	CN1Cc2cccnc2N(C)Cc2cc(Cl)ccc21	-25.4%	-3.7%
27	COc1ccccc1C(=O)NCC(=O)n1nc(C)cc1C	-7.2%	-15.6%
28	O=C(NC(N1CCOCC1)C(Cl)(Cl)Cl)c1ccc(F)cc1 (stereo unspecified)	-6.7%	-12.3%
29	O=C(NCCSCc1ccco1)Nc1ccccc1	-10.4%	i
30	COc1ccc(N(CC(=O)N2CCc3ccccc32)S(=O)(=O)c2c(C)nn(C)c2C)cc1	-28.0%	-14.6%
31	Cc1ccc(S(=O)(=O)Nc2nc(C)cc(NCCN)n2)cc1	-18.2%	-7.3%
32	N=c1n(CCc2ccccc2)c2ccccc2n1Cc1ccccc1F	-16.3%	?
33	OCC1CN1C1CCCCC1 (stereo unspecified)	-4.1%	-14.8%
34	CCCN(C(=O)Cn1ncc2c1-c1ccccc1OC2)c1cccc(C)c1	-20.2%	-16.3%
35	CCc1ccc(NC(=O)CCCNC(=O)Cn2cnc3sc(C)c(C)c3c2=O)cc1	0.9%	-7.2%
36	CCOc1ccc(C2CC(c3cccc(C)c3)n3nc(N)nc3N2)cc1 (stereo unspecified)	-2.9%	-13.2%
37	CN(C)c1ccc(C=c2c3cc(O)ccc3n3c2cc(-c2ccccc2)[n+]3C)cc1	131.5%[activator]	107.5%[activator]
38	CSC(SC)=C(C(C)=O)C(=O)c1ccc(C)cc1	-8.5%	-2.7%
39	COc1ccc(C(CNC(=O)c2cc3ccccc3cc2O)N2CCOCC2)cc1 (stereo unspecified)	-10.8%	-26.4%
40	COc1ccccc1NC(=O)CSCc1cc(=O)c2c(C)cc(C)cc2[nH]1	3.5%	5.0%
41	CC(=O)Nc1c(C)nn(-c2ccc([N+](=O)[O-])cc2)c1C	-16.2%	i
42	COc1ccc(C2CC(c3ccc([N+](=O)[O-])cc3)=NN2C(=O)c2ccccc2)cc1OC (stereo unspecified)	-14.5%	i
43	Cc1ccccc1OCC(=O)OCn1nnc2ccccc2c1=O	2.3%	-6.5%
44	Cc1ccc(NS(=O)(=O)c2ccc(-n3cccn3)cc2)cc1F	-16.0%	i
45	Cc1ccc(SCC(=O)N(C)CC(=O)Nc2cccc(F)c2)cc1	-22.4%	-0.9%
46	CCOc1ccc(NC(=O)CCn2c(=O)c3cccn3c3cccnc32)cc1	-6.9%	-8.9%
47	COc1ccc(NP(=O)(Nc2ccc(OC)cc2)Oc2ccccc2)cc1	-8.6%	-6.7%
48	C=CCN(c1ccccc1)S(=O)(=O)c1ccc(Cl)c(C(=O)OCC(=O)N(C)C2CCS(=O)(=O)C2)c1 (stereo unspecified)	-10.9%	-3.1%
49	CCC(=O)Nc1ccc(C(=O)Nc2cc(C)on2)cc1	84.8%[activator]	72.3%[activator]
50	Cc1cc2c(cc1S(=O)(=O)Nc1cccc(C)c1C)OCC(=O)N2	-18.6%	i
51	Cc1nc2c3c4c(sc3n3c(SCC(=O)NCc5ccco5)nnc3n2n1)COC(C)(C)C4	-16.3%	.
52	COc1ccccc1CNc1ccnc(-c2ccoc2)n1	-0.2%	-7.8%
53	Cc1nn(Cc2ccc(Cl)cc2Cl)c(C)c1NC(=O)C1C2CCC(O2)C1C(=O)O (stereo unspecified)	-27.1%	?
54	Cc1ccc(-c2noc(-c3ccccc3OCC(=O)Nc3ccccc3[N+](=O)[O-])n2)cc1	-4.3%	0.2%
55	COc1cc(NC(=O)c2ccc(-c3c(C)noc3C)c3ccoc23)cc(OC)c1OC	-26.3%	?
56	Cn1ncc(N=Cc2ccc([N+](=O)[O-])cc2)c1C(=O)Nc1ccccc1	-9.1%	-0.9%
57	COc1ccc2c3c([nH]c2c1)C(C)N(CCC(=O)NN)CC3 (stereo unspecified)	?	-27.1%
58	CCCn1c(N)nc2ccccc21	-11.7%	-11.7%
59	Cc1cccc(NC(=O)c2oc3ccccc3c2NC(=O)Cc2coc3ccc(C(C)C)cc23)c1	-4.2%	-7.4%
60	Cc1cc(C)c(C#N)c(SCc2cn3c(C)cccc3n2)n1	-19.8%	-18.4%
61	O=C(NC(Nc1ccc(F)cc1)(C(F)(F)F)C(F)(F)F)c1cccnc1	1.4%	-11.5%
62	NS(=O)(=O)c1ccc(CNC(=O)c2ccc(S(=O)(=O)C(F)F)cc2)cc1	-14.9%	-10.0%
63	Cc1ccc(NC(=O)CNC2CCS(=O)(=O)C2)cc1C (stereo unspecified)	-9.5%	i
64	Cc1ccc(S(=O)(=O)N2CCN(c3nc(C(N)=O)nc4ccccc34)CC2)cc1	-9.8%	-13.8%
65	CNC(=O)c1ccc2nc(-c3ccccc3)c(-c3ccccc3)nc2c1	-21.1%	11.7%
66	Cc1nc(NC(=O)c2ccccc2)sc1-c1csc(N)n1	?	?
67	COC(=O)C(C)NS(=O)(=O)c1ccc(NC(C)=O)cc1 (stereo unspecified)	-3.1%	i
68	NC(=O)NN=C1CCC(OCc2ccccc2)CC1CC(=O)O (stereo unspecified)	-1.8%	i
69	COc1cc2c(cc1OC)C(COc1ccc(C(C)C)cc1)N(C(=O)c1ccc(S(=O)(=O)N3CCCC3)cc1)CC2 (stereo unspecified)	-5.5%	5.0%
70	Cc1cc(C)nc(NS(=O)(=O)c2ccc(N=Cc3c(O)n(C)c(=O)n(C)c3=O)cc2)n1	-4.4%	i
71	O=C1C(Cl)=C(O)C2(Cl)C(Cl)=C(Cl)C12Cl (stereo unspecified)	-1.0%	i
72	CC(C)CSc1nnc(CNC(=O)c2ccccn2)n1C	-16.2%	i
73	Cc1csc(NC(=O)Nc2ccccc2[N+](=O)[O-])n1	-8.5%	i
74	Cc1ccc(S(=O)(=O)N2CCCC2CNC(=O)C(=O)NCc2cccs2)cc1 (stereo unspecified)	-27.2%	-14.0%
75	O=C(C[n+]1cccc(Br)c1)c1ccc(-c2ccccc2)cc1	-17.3%	-4.0%
76	CCC(CO)NC(=O)C(=O)Nc1c2c(nn1-c1ccc(F)cc1)CSC2 (stereo unspecified)	-8.5%	-4.5%
77	Cc1ccccc1NC(=S)NNc1ncc(C(F)(F)F)cc1Cl	-17.6%	-6.7%
78	Cc1ccc(CN(C(=O)COc2ccc(C(C)(C)C)cc2)C2CCS(=O)(=O)C2)o1 (stereo unspecified)	-13.9%	i
79	Cc1ccc(C(C(=O)NC2CCCCC2)N(C(=O)c2csnn2)c2ccccc2F)o1 (stereo unspecified)	-12.4%	-17.8%
80	CCn1nc(C(=O)OCC(=O)Nc2ncc(Cl)c(C)c2Cl)c2ccccc2c1=O	12.1%	1.6%

# Continuation:
no.	canonical_smiles	Vaccinia Venus	VACV mCherry inh
81	O=C(CSc1nc2ccccc2[nH]1)c1ccccc1F	5.8%	4.8%
82	Cc1cc(C)cc(NC(=O)NC2CCCCCCC2)c1	-6.3%	-12.5%
83	Cc1ccc(-n2c(=O)c3c(cnn3C)n(CC(=O)Nc3ccccc3C)c2=O)cc1	3.6%	-4.4%
84	COC(=NC1CCCCC1)C(O)c1c[nH]c2ccccc12 (stereo unspecified)	-7.6%	-18.0%
85	CCN(CC)CCNC(=O)C(Oc1ccccc1)Oc1ccccc1	-8.0%	i
86	CC(=O)c1cccc(NC(=O)c2ccc(NS(=O)(=O)c3c(C)noc3C)cc2)c1	-5.0%	i
87	CCc1cccc(NC(=O)C2CCN(S(=O)(=O)c3cccc(-c4noc(C)n4)c3)CC2)c1	-17.7%	-9.8%
88	Cc1ccccc1C(=O)NCC(=O)NCC1(N2CCOCC2)CCCCC1	-7.7%	-9.6%
89	CCc1nc2ccc(C(=O)NCCCN3CCCC3=O)cn2c1N(CC)C(=O)NCCc1ccccc1	6.9%	4.1%
90	CN(Cc1ccco1)c1ncnc2ccc(-c3cccc(C#N)c3)cc12	10.0%	-7.8%
91	CCOC(=O)C1=C(C)NC(=O)NC1c1ccc(OC(=O)c2ccco2)c(OC)c1 (stereo unspecified)	16.4%	6.8%
92	Cc1nc(NC(=O)COC(=O)c2ccc(CO)cc2)c(Cl)cc1Cl	-6.0%	-12.8%
93	CC(C)(C)C1CCC(=O)C(C2(O)C(=O)Nc3ccccc32)C1 (stereo unspecified)	7.4%	?
94	c1ccc(C(OCCN2CCNCC2)c2ccccc2)cc1	-16.3%	-2.9%
95	Cc1ccc(Cn2c(N3CCN(C)CC3)nc3c2c(=O)[nH]c(=O)n3C)cc1	-16.1%	-1.5%
96	Cc1cc(NC(=O)CCC(=O)N(CC(=O)NCC2CCCO2)c2ccc(Cl)c(Cl)c2)no1 (stereo unspecified)	-15.6%	-18.3%
97	CSc1ccccc1NC(=O)c1ccccn1	-11.8%	-22.3%
98	COc1ccc([N+](=O)[O-])cc1N(CC(=O)NC(C(C)C)C(C)C)S(C)(=O)=O	2.1%	-2.3%
99	COc1ccc(/C=C/C(=O)NC(=S)Nc2ccccc2)cc1OC	-21.0%	i
100	Cc1c(CCC(C)C)c(-n2ccnc2C)n2c(nc3ccccc32)c1C#N	-4.6%	-5.1%
101	COC(=O)c1coc(-c2ccc(C)cc2)c1C(=O)OC	-19.8%	.
102	Fc1ccc(CN2CCSCC2)cc1F	-4.7%	-8.0%
103	C#CCO[C@@H]1C[C@H](n2cnc3c(NC(=O)c4ccccc4)ncnc32)O[C@@H]1CO	1.2%	9.8%
104	Cc1ccc(NC(=O)Cn2c(CCC(=O)O)ccc2-c2ccc(Cl)cc2)cc1	-0.2%	0.4%
105	COc1ccc(C2CC(=O)N(C)c3ccccc3S2)cc1 (stereo unspecified)	3.1%	-5.3%
106	Cc1ccc(-c2nnn(CC(=O)N(c3ccccc3)C(C(=O)NCC3CCCO3)c3cccs3)n2)o1 (stereo unspecified)	-6.0%	i
107	CC(C)(C)OC(=O)C[C@@H]1C/C=C\C[C@@H](CC(=O)N[C@@H](CO)Cc2ccccc2)C(=O)NC[C@@H](c2ccccc2)OC1=O	-25.5%	i
108	CC(=NNC(=S)N1CC2CCC(CC2)C1)c1nccs1	?	?
109	CN1CCSc2ccc(C(=O)Nc3ccc(Cl)cc3)cc21	3.2%	-1.9%
110	COc1ccc(/C=C2\SC(=S)N(NS(=O)(=O)c3ccc(C)cc3)C2=O)c(OC)c1	-16.9%	-8.4%
111	CCNC(=S)N1CCN(c2ccccc2OCC)CC1	-15.3%	-11.2%
112	C/C=C\C(=O)Nc1cccc(C2=NOC3(C2)C[C@@H](C(N)=O)N(C(=O)c2ccc(OC)cc2)C3)c1 (stereo partly specified)	-1.3%	-17.5%

# Compounds were not picked by outcome; 0.87% or so of the library scored in one or more.
